Mtb growth: Confirmatory growth inhibition assay against Mycobacterium tuberculosis H37Rv, potency (AID 1949); most inactive calls were filed without a number and no value below 0 was filed; inhibition, % at 10 µg/mL; hits with a dose series show IC50 in µg/mL; 1.6% of 100,000 active;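 active = confirmed in a dose series; inconclusive = about 50% or more but not retested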;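 note: bacteria grown 7 days with compound before Alamar blue readout; 0% = untreated bacteria and 100% = reference antibiotic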
Active calls of the source: *; i = inactive; u = inconclusive.

compound	Mtb growth
OC(COc1ccc(Br)cc1)Cn1cnc(-c2ccccc2)c1 (centres undefined)	u
CC1CCCN(C(=O)c2cc(-c3ccccc3)nc3ccccc23)C1 (centres undefined)	i
C=CCn1c(CNC(=O)c2ccccc2F)nnc1SCC(=O)Nc1sc2c(c1C(=O)OCC)CCCC2	3%
COc1cccc(NC(=O)C2(C)Cc3ccccc3C(=O)O2)c1 (centres undefined)	i
CC(=O)Nc1nnc(SCC(=O)NCCOc2ccccc2)s1	i
N/C(=N\c1nc(-c2cccs2)cc(C(F)(F)F)n1)Nc1cccc(Cl)c1	2%
CCOc1ccccc1NC(=S)NC(=O)c1ccccc1I	i
COc1cccc(N(CC(=O)N2CCc3ccccc3C2)S(C)(=O)=O)c1	i
Cc1cccc(OCCn2cnc3ccccc32)c1	8%
CCC(CC)C(=O)Nc1ccc(OC)c(NC(=O)c2ccco2)c1	3%
CCOc1cc(S(=O)(=O)NC2CCCCCC2)ccc1F	i
Cn1c(SCC(=O)N2CCc3ccccc3C2)nnc1-c1c[nH]c2ccccc12	i
COc1cc([N+](=O)[O-])ccc1N1C(=O)CC(Sc2nccc(C)n2)C1=O (centres undefined)	i
CC(NC(=O)c1ccccc1Br)c1ccc2c(c1)OCCO2 (centres undefined)	0%
CCc1cccc(OCCCN2CCCCC2)c1	i

More compounds.
compound	Mtb growth
COc1ccccc1NC(=O)C1CC=CCC1(C)C(=O)O (centres undefined)	i
O=C(Nc1nc(-c2cccs2)c(-c2ccccc2)s1)c1cccnc1	i
Cc1cc(C=O)c(C)n1-c1ccc(OCC(=O)O)cc1	i
Cc1ccc(SCC(=O)NCc2cccnc2)cc1	i
O=C(NC1CCCC1)C(Sc1ccccc1)c1ccccc1 (centres undefined)	1%
CC(=O)Nc1ccc(C(=O)CSc2nc(-c3ccccc3)nc3c2CCCC3)cc1	i
CCOc1ccc(C(=O)Nc2nnc(CC(C)C)s2)cc1OCC	6%
COc1ccc(S(=O)(=O)N2CCC(C(=O)NCCc3ccccc3)CC2)cc1	i
CN(CCc1ccccn1)C(=O)c1cccc(F)c1	i
COc1cc(C2C3=C(CC(C)(C)CC3=O)Nc3[nH]c(=S)[nH]c(=O)c32)cc(OC)c1OC (centres undefined)	i
COc1ccc(CCNC(=S)N2CCN(C(=O)c3ccco3)CC2)cc1OC	i
S=C(Nc1cccc(Cl)c1)N1CCN(c2ccccn2)CC1	i
CCOc1ccc(-n2c(SCC(=O)Nc3ccc(CC)cc3)nnc2-c2ccncc2)cc1	i
CC(=O)NS(=O)(=O)c1ccc(NC(=O)c2ccccc2Br)cc1	i
Cc1cccc(C)c1OCc1nnc(SCC(=O)Nc2cc(Cl)ccc2Cl)o1	1%

Next section.
compound	Mtb growth
COC(=O)c1ccccc1NC(=O)CN1CCCCC1	i
CCCCOc1ccc(NC(=O)C(=O)NCc2ccccc2C)cc1	i
CCN1CCN(CCOCCOc2ccc3ccccc3c2Cl)CC1	i
COc1ccccc1C(=O)Oc1c(CN2CCOCC2)cc(Cl)c2cccnc12	u
O=C(c1cccnc1)N(Cc1ccccc1)c1ccccc1	i
CCCn1nnc(NC(=O)c2cc(Br)ccc2Cl)n1	i
O=C(CCN1C(=O)c2ccccc2C1=O)NC(=S)Nc1cccc(Cl)c1	i
CC(NC(=S)NNC(=O)Cn1ncc2ccccc2c1=O)c1ccccc1 (centres undefined)	i
CCc1nnc(NC(=O)c2sc3nc4c(cc3c2N)CCCC4)s1	i
NC(=O)c1ccccc1NC(=S)NC(=O)c1ccccc1F	i
COc1cc(NC(C)=O)ccc1NC(=O)c1ccccc1	i
COC(=O)C(O)(CC(=O)Nc1cccc(SC)c1)C(F)(F)F (centres undefined)	0%
Cc1cccc(/C(N)=N/OC(=O)c2cc(-c3ccccc3)nc3ccccc23)c1	i
CCCCS(=O)(=O)C(=C(Nc1ccc(CC)cc1)Nc1ccc(CC)cc1)S(=O)(=O)CCCC	1%
CC(C)(C)C(=O)N1CCN(c2ccc(C(=O)NC34CC5CC(CC(C5)C3)C4)cc2[N+](=O)[O-])CC1	i

Continued.
compound	Mtb growth
CC1c2[nH]c3ccccc3c2CCN1C(=S)NC(=O)c1ccccc1 (centres undefined)	i
CCCCS(=O)(=O)N1CCN(C2CCCCC2)CC1	1%
NCCNCCSc1ccc(Cl)cc1	i
O=C(CCc1ccccc1)Nc1ccc(-c2ccc([N+](=O)[O-])cc2)cc1	2%
COc1ccc(C(=O)N2CCCCCC2)cc1S(=O)(=O)N1CCOCC1	i
Ic1ccccc1-c1nn2c(-c3ccccc3)nnc2s1	i
Cc1cc(NC(=O)CCC2COc3ccccc3O2)no1 (centres undefined)	i
Cc1ccc2nc(-c3cc(NC(=O)C(C)C)ccc3Cl)oc2c1	i
CCCCNS(=O)(=O)c1ccc(NC(=O)c2cccc(I)c2)cc1	i
COc1ccc(C(=O)Nc2cccc(Cl)c2C)cc1I	i
Cc1cccc(NC(=S)NC(=O)c2ccc(C)c(I)c2)c1	i
Cc1cc(Br)cc(C)c1OCC(=O)Oc1ccc2c(C)cc(=O)oc2c1	i
CC(C)Oc1ccc(C(=O)Nc2cccc3cccnc23)cc1	u
CCOC(=O)C1CCN(c2ncnc3c2cnn3-c2cccc(C)c2)CC1	u
CCOC(=O)C1=C(C)NC2=C(C(=O)c3ccccc32)C1c1ccc(C)c(Cl)c1 (centres undefined)	4%

Carrying on.
compound	Mtb growth
CCOC(=O)C1=C(C)N(c2ccc(Br)cc2)C(=O)C1	3.2µg/mL*
CCNC(=O)CC1C(=O)N(c2ccc(F)cc2)C(=O)N1CCOC (centres undefined)	i
C#CCOc1ccc(Br)cc1C=O	i
O=C(CSc1nc2ccccc2c(=O)n1-c1ccccc1)NCc1cccs1	2%
O=C1CC(c2ccccc2)Cc2nc(NCc3ccco3)ncc21 (centres undefined)	i
CC1CN(C(=S)Nc2ccc(Br)cc2)CC(C)O1 (centres undefined)	i
CCc1nc2ccc(Br)cc2c(=O)n1-c1ccc(Cl)cc1	i
O=C(COc1ccc(Br)cc1Cl)Nn1cnnc1	i
O=C(CSc1nnnn1-c1ccccc1)N1CCCc2ccccc21	i
CCCCc1cc(=O)oc2cc(C)cc(OCc3ccc([N+](=O)[O-])cc3)c12	i
Cc1ccc(N2CCN(S(=O)(=O)c3ccc(C(C)(C)C)cc3)CC2)cc1C	i
CCOC(=O)c1c(C2COc3ccccc3O2)csc1NC(=O)c1ccco1 (centres undefined)	i
O=C(CCS(=O)(=O)Cc1ccccc1)N1CCN(c2ccccc2)CC1	i
Cc1ccc(C)c(C(=O)Nc2ccncc2)c1	i
CCCCNS(=O)(=O)c1ccc(NC(=O)c2cc(Cl)ccc2OC)cc1	2%

The list goes on.
compound	Mtb growth
CCc1ccc(OCCCC(=O)Nc2ccc(C)c(Cl)c2)cc1	30%
Cc1sc(NC(=O)c2cc(Cl)ccc2Cl)c(C(N)=O)c1C	i
CCN1CCN(CCCOc2ccc(Cl)cc2Br)CC1	i
CCOC(=O)c1oc2cc(OC(=O)c3ccccc3Cl)ccc2c(=O)c1-c1ccccc1OC	i
COC(=O)c1sc(S(=O)(=O)NCc2ccccc2)c(C(=O)OC)c1C	i
CCn1ccc(C(=O)Nc2cccc(Cl)c2)n1	i
CCOc1ccc(N2C(=O)CC(SCc3nc4ccccc4[nH]3)C2=O)cc1 (centres undefined)	i
Cc1ccccc1OCC(=O)Nc1ncc(Cc2ccc(Cl)cc2)s1	i
O=C(c1cc2cc(Cl)ccc2oc1=O)N1CCOCC1	i
COc1cc(OC)cc(C(=O)Nc2ccc(S(=O)(=O)Nc3cnc4ccccc4n3)cc2)c1	i
CC(=O)N1c2ccccc2NC2=C(C(=O)CC(c3ccccc3)C2)C1c1cccs1 (centres undefined)	1%
CSc1nsc(SCC(=O)NCc2ccc(C)cc2)n1	u
CCOc1ccc(NC(=O)CS(=O)(=O)Cc2ccccc2)cc1	i
COc1ccc(Cl)cc1C(=O)Nc1ccc(CN2CCOCC2)cc1	i
Cc1ccc(-c2nc3ccc(Br)cc3c(=O)o2)cc1	i

Ordered by count of non-hydrogen atoms (lowest first): 6 of the compounds above
compound	Mtb growth
Cc1ccc(-c2nc3ccc(Br)cc3c(=O)o2)cc1	i
CCN1CCN(CCCOc2ccc(Cl)cc2Br)CC1	i
CCc1ccc(OCCCC(=O)Nc2ccc(C)c(Cl)c2)cc1	30%
COC(=O)c1sc(S(=O)(=O)NCc2ccccc2)c(C(=O)OC)c1C	i
CC(=O)N1c2ccccc2NC2=C(C(=O)CC(c3ccccc3)C2)C1c1cccs1 (centres undefined)	1%
CCOC(=O)c1oc2cc(OC(=O)c3ccccc3Cl)ccc2c(=O)c1-c1ccccc1OC	i

(next part)
compound	Mtb growth
O=C(Nc1ccc(S(=O)(=O)Nc2ccccc2)cc1)C(c1ccccc1)c1ccccc1	33%
Cc1c(Cl)cccc1NC(=O)CSc1nnc(-c2cccs2)n1C	i
COc1cc(C=O)cc(Cl)c1OC1CCCC1	1%
CSc1ccc(CN2CCN(C(C)C)CC2)cc1	1%
Cc1cc(C)cc(OC(=O)CN2C(=O)c3ccccc3C2=O)c1	i
C/C=C/c1c(F)c(F)c(Oc2ccccc2NC(C)=O)c(F)c1F	i
Cc1ccc(CN2C(=O)C(O)(c3c(C)[nH]c4ccccc34)c3ccccc32)cc1 (centres undefined)	i
COc1ccc(-n2c(SCC(N)=O)nc3c(c2=O)C2(CCCC2)Cc2ccccc2-3)cc1	i
CCOC(=O)NC(=O)CSc1nnnn1-c1ccccc1	i
CCN1C(=O)C2(C(C#N)=C(N)SC(N)=C2C#N)c2ccccc21	i
O=C(NNC(=S)Nc1ccc2c(c1)OCO2)c1ccc(-n2cccc2)cc1	i
COc1cc(NC(=O)c2cccnc2)cc(OC)c1OC	i
C=CCN(C(=O)c1cc(OC)cc(OC)c1)c1nnc(-c2ccncc2)s1	i
Cc1cc(Cl)ccc1OCCCN(C)C1CCCCC1	i
O=C(Nc1ccccc1-c1nc2ccccc2s1)c1ccc(Br)o1	1%

The list continues.
compound	Mtb growth
Cc1cccc(-n2c(C)cc(C=O)c2C)c1C	i
CCS(=O)(=O)N1CCN(C(=O)CCC2CCCC2)CC1	i
Cn1c(CC(O)C(Cl)(Cl)Cl)nc2ccccc21 (centres undefined)	2%
CC(NC(=O)Cn1nc(-c2ccc(Cl)cc2)c2ccccc2c1=O)c1ccccc1 (centres undefined)	6%
Cc1ccc(SCCC(=O)Nc2ccccc2C(=O)NCc2ccco2)cc1	i
COc1cc(S(=O)(=O)Nc2ccccn2)ccc1Cl	i
COc1cccc(-c2nn(-c3ccccc3)cc2/C=C(\C#N)c2nc3ccccc3c(=O)[nH]2)c1	i
CC(=O)OCCSc1c(-c2ccccc2)c2cc(Cl)ccc2[nH]c1=O	i
CCCCc1ccc(NC(=O)CCCOc2ccc(OC)cc2)cc1	36%
O=C(CSc1nnc(-c2ccco2)n1-c1ccccc1)c1ccccc1	i
O=C(O)CCSc1nc2ccccc2o1	i
COc1ccc(C)cc1NC(=O)CCS(=O)(=O)Cc1ccccc1	i
O=C(Nc1ccc2ccccc2c1)Nc1ccc2snnc2c1	0.9µg/mL*
COc1cc(NC(=O)c2cc(C)cc(C)c2)c(OC)cc1Cl	i
CN(C)C(=S)c1ccc(N(C)C)cc1	i

Next results follow:
compound	Mtb growth
CC(SCc1ccccc1)C(=O)Nc1ccccc1C(=O)NC1CCCCC1 (centres undefined)	i
O=C(c1ccccc1)c1cn(CC(=O)N2CCCCC2)c2ccccc12	i
O=C(Nc1ccc(S(=O)(=O)N2CCOCC2)cc1)C1c2ccccc2Oc2ccccc21	1%
N/C(=N\OC(=O)c1cc(-c2ccccc2)nc2ccccc12)c1cccc([N+](=O)[O-])c1	1%
Cc1ccc(NC(=S)NC(=O)c2cccc(F)c2)c(C)c1	i
CCOc1ccc(-c2cnoc2N)cc1	i
COC(=O)c1ccc(Cl)c(NC(=O)C(C)Sc2ccc(C)cc2)c1 (centres undefined)	2%
CCCNC(=O)NCc1ccc(OC)c(OC)c1	i
COc1ccc(-c2ccc(C(=S)N3CCN(c4ccc(C)cc4)CC3)o2)cc1	7%
OC(COc1ccc(-c2ccc(OCC(O)CN3CCOCC3)cc2)cc1)CN1CCOCC1 (centres undefined)	i
COc1ccc(C(=O)NC(=S)N(C)c2ccccc2)cc1I	i
N#Cc1ccc(N2C(=O)c3ccccc3S2(=O)=O)cc1	i
CCn1c(COc2ccccc2Cl)nnc1SCC(=O)Nc1ncccc1C	i
COc1ccc(CCC(=O)C2(O)CCCCC2)cc1	i
O=C(Nc1ccc(C(=O)NN2C(=O)c3ccccc3C2=O)cc1)c1ccccc1	i

A different layout for 2 compounds above:
CSc1nsc(SCC(=O)NCc2ccc(C)cc2)n1
- Mtb growth: u

CCOc1ccc(NC(=O)CS(=O)(=O)Cc2ccccc2)cc1
- Mtb growth: i

The listing continues.
compound	Mtb growth
Cc1ccc(S(=O)(=O)Nc2ccccc2CNCc2ccccc2)cc1	i
COc1ccc(NC(=O)CC(C(=O)O)N(C)C)cc1 (centres undefined)	i
Cc1cc(Br)ccc1OC(=O)c1ccccc1[N+](=O)[O-]	i
Cc1c(Cl)cccc1Nc1nc(N)nc(CSCCO)n1	i
CCOc1cc(C(=O)O)cc(Cl)c1OCc1ccccc1	i
Cc1ccccc1CSCCNC(=O)CN(c1ccc(F)cc1)S(C)(=O)=O	i
CCc1nnc(NC(=O)c2cc(-c3ccccn3)nc3ccc(Br)cc23)s1	1%
CCC(=O)c1ccc(OCCNCCN(C)C)cc1	1%
Cc1cccc(NC(=S)N2N=CCC2c2ccccc2)c1 (centres undefined)	5%
Cn1nnnc1NCc1cc(Br)ccc1OCc1ccccc1F	i

Source: PubChem (Southern Research Institute)

This is a subset (hit frequency here may not be typical).
